PABP FP inh: PABP-poly(A) binding inhibition; P11940; PABP-poly(A) RNA binding, fluorescence polarization; inhibition, % at 35 µM; 1% of 290,000 active; AID 2014;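 active = 50% or more with normal probe brightness, or confirmed in later tests; inconclusive = above 50% with abnormal brightness, or retests that disagree; inactive = below 50% or failed in later tests; about a fifth of its hits are not listed in these tables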;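 note: calls also rest on retests at 20 µM and on dose response follow-up; controls were probe without protein and protein plus probe with vehicle; some compounds called inactive have numbers as strong as hits; many hits fall short of the cut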
Target sequence (P11940 whole entry, looked up): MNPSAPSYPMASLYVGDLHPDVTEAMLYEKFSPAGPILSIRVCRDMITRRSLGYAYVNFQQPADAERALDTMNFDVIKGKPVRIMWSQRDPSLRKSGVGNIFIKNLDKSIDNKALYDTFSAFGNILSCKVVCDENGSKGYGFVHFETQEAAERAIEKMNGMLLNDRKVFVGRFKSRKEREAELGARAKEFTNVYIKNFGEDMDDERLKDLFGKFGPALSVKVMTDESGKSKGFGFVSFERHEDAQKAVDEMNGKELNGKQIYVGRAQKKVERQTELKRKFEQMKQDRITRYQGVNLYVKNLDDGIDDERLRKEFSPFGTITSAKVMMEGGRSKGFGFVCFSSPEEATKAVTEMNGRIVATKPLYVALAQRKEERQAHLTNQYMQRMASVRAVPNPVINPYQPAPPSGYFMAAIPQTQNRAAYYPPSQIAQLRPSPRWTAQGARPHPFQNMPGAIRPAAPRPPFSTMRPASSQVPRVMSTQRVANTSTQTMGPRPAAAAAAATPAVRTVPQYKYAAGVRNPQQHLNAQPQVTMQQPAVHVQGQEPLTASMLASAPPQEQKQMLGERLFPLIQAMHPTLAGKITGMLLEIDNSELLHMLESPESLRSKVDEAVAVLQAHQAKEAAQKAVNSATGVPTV
UUG fidelity: yeast start codon fidelity modulation; activity score, % at 18.7 µM; 0.13% of 350,000 active; AID 602363; S. cerevisiae UUG-firefly luciferase reporter, luminescence/redox ratio;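 active = replicate mean at a twofold rise or more, about +100% in these data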;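 note: firefly luciferase made from a UUG start codon reports start codon fidelity; reporter light over untreated wells divided by growth signal over untreated wells; some hits fall short of that in this replicate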
Env fusion inh: HIV envelope-mediated fusion inhibition; HeLa-JRFL Env/CEM21 cell fusion, luciferase; inhibition, % at 12.3 µM; 1.1% of 360,000 active;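 active = mean replicate inhibition score of at least 50 and every replicate individually at or above 50; inconclusive = only one of the two criteria met; inactive = mean below 50 and not all replicates reaching 50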;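 note: 0% = plate neutral controls and 100% = maraviroc near 300 nM; one replicate is shown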
MT1-MMP act inh: inhibitors of human MT1-MMP activation | P50281 | 0.061% of 360,000 active | HT1080 RFP-PRO-GFP cells, GFP/RFP ratio fluorescence, overnight; percent of plate control window, DMSO zero | GFP/RFP ratio change, % at 20 µM;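 active = GFP/RFP ratio change of at least 30% with cell ATP level not reduced by more than half and red fluorescence within 50% of control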; note: strong numbers were not always called active
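system = RFP-PRO-GFP reporter HT1080 cells | dosing = 20 µM single dose, 1% DMSO | timing = overnight cell settling, then overnight compound exposure, 37 °C, 5% CO2 | read-out basis = GFP/RFP fluorescence ratio | controls = DMSO and RFP-L50D-GFP cell wells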
eIF4H FP inh: inhibitors of RNA binding by human eIF4H. Q15056. eIF4H fluorescence polarization binding assay. inhibition, % at 35 µM. 0.94% of 290,000 active. AID 2012;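 active = 50% or more with normal probe brightness, or confirmed in later tests; inconclusive = above 50% with abnormal brightness, or retests that disagree; inactive = below 50% or failed in later tests; about a fifth of its hits are not listed in these tables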;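 note: calls also rest on retests at 20 µM and on dose response follow-up; 0% = protein and probe with vehicle and 100% = probe without protein; strong numbers were not always called active; many hits fall short of the cut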
Rce1 inh: inhibitors of yeast Ras-converting enzyme. Q03530. yeast membranes, quenched prenylated peptide cleavage fluorescence. calls only. 0.27% of 290,000 active. AID 2563;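 active = fall in fluorescence gain of 50% or more versus controls, with final raw signal at or below 3038400; inconclusive = same 50% fall but final raw signal above 3038400; inactive = fall in fluorescence gain under 50%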;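 note: plate controls were neutral control wells for no effect and wells lacking membranes for full effect; tested at 10 µM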
Target sequence (Q03530 whole entry, looked up): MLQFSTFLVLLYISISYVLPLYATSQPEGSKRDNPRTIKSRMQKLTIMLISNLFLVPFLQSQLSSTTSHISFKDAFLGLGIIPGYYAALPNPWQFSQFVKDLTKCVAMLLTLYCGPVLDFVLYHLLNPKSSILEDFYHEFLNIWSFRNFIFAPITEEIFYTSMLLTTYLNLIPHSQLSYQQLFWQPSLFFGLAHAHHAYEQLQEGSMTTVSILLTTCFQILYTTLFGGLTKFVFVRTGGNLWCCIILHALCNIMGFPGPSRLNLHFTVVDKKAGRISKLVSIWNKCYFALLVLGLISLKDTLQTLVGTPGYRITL
CSC inhib: cancer stem cell inhibition | cancer stem cell-like cells viability, luminescence | inhibition, % at 7.5 µM | 1.1% of 300,000 active;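 active = mean at 75% or more and at least half the replicates too; inconclusive = mean and replicates disagree; tested in HMLE shEcad cells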;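 note: 0% = median of negative and 100% = median of positive control wells; the first replicate is given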
MT1-MMP act inh RFP: recorded beside MT1-MMP act inh, whose call it bears; RFP signal change, %; measured here: RFP expression control read;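 0 = vehicle wells; hits needed this value within 50% of zero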
* = called active by the depositor; i = inactive; ? = inconclusive; nt = not tested or not shown.

Each structure is followed by: PABP FP inh | UUG fidelity | Env fusion inh | MT1-MMP act inh | MT1-MMP act inh RFP | eIF4H FP inh | Rce1 inh | CSC inhib
> O=C(c1cnn(C(=O)c2ccc(O)cc2)c1)c1ccccc1O
→ -0.9 | nt | 3.8 | nt | nt | 7.1 | i | -33.6
> C=CCn1c(SCCOc2ccc(OC)cc2)nnc1C(C)NC(=O)c1ccc(OC)cc1 (centres undefined)
→ -4.5 | -12.6 | 13.7 | -0.2 | -5.4 | -4.8 | i | -11.9
> Cc1ccc(NC2=C(NCCO)C(=O)c3ccccc3C2=O)cc1
→ -2.9 | nt | -26.0 | -10.3 | 3.3 | -5.7 | i | 7.8
> CN(C)C(CNC(=O)c1ccc(NC(=O)c2cccs2)cc1)c1ccccc1 (centres undefined)
→ 3.4 | -15.2 | -1.1 | -1.5 | 0.4 | -2.8 | i | -4.1
> Nc1nc(SCC(=O)Nc2ccc([N+](=O)[O-])cc2Br)n[nH]1
→ 11.5 | -9.4 | -16.9 | 3.9 | 2.1 | -2.5 | i | -1.9
> O=S(=O)(c1cccs1)N1CCN(Cc2cccc(F)c2)CC1
→ -6.1 | -3.0 | nt | -0.3 | -2.2 | -8.4 | i | -5.6
> OCCNCc1ccc(OC2CCCC2)cc1
→ -5.0 | -3.9 | -30.9 | -2.8 | -0.2 | 2.4 | i | 12.3
> CCCc1nc(SCC(=O)Nc2ccc(S(=O)(=O)N(C)C)cc2)c2ccccc2n1
→ 2.7 | -19.3 | nt | -4.9 | -11.4 | -5.5 | i | 18.7
> CCOC(=O)c1ccc(Nc2nc(N)c3cc(OC)c(OC)cc3n2)cc1
→ 11.1 | -12.9 | nt | -4.2 | -0.3 | -10.6 | i | 14.9
> CCOC(=O)C1=C(CC)Nc2ccccc2N=C1NC(=O)c1cccc(S(=O)(=O)N2CCCC2)c1
→ 0.0 | 0.0 | nt | -1.0 | 5.3 | 1.1 | i | 2.5
> OCCOCCn1c(CCNc2nc(-c3ccc(F)cc3)cs2)nc2cc(C(F)(F)F)ccc21
→ nt | -20.5 | 37.4 | 3.5 | -14.5 | nt | i | 4.7
> CCOCCCn1c(=N)c(S(=O)(=O)c2ccccc2)cc2c(=O)n3cc(C)ccc3nc21
→ 11.9 | -11.8 | 3.0 | 6.2 | -4.8 | 3.7 | i | 0.3
> COc1ccc(CCNC(=O)N2CCOCC2)cc1
→ -1.4 | -6.4 | nt | 0.0 | 2.0 | -3.7 | i | -14.3
> COc1ccc(-c2cc(C(=O)N(C)Cc3ccc(F)cc3)c3ccccc3n2)cc1OC
→ 23.4 | 3.2 | 15.7 | -3.9 | -4.7 | 8.2 | i | 12.4
> CC1=C(C(N)=O)C(c2ccc(F)cc2)n2nc(CCCO)nc2N1 (centres undefined)
→ 0.8 | -8.8 | 19.3 | 3.3 | 2.5 | 5.8 | i | -13.7
> Cc1ccc(C)c(CSC2=NCCN2C(=O)Cc2ccc([N+](=O)[O-])cc2)c1
→ 2.5 | nt | 9.1 | 8.0 | 8.0 | -16.9 | i | -9.9
> CC(=O)c1cccc(NC(=O)NCc2cccs2)c1
→ -5.3 | -10.8 | -3.5 | nt | nt | -7.6 | i | -1.1
> O=C(CN1CCOc2ccccc21)NC1CC1
→ nt | -6.6 | -6.7 | -2.7 | 6.8 | nt | i | -7.1
> CCOc1ccc(NC(=O)c2ccccc2-c2ccccc2C(=O)O)cc1
→ nt | -9.3 | -54.2 | -3.9 | -3.2 | nt | i | -2.9
> CCCNS(=O)(=O)c1cc(CN2C(=O)c3cccnc3C2=O)ccc1OC
→ 7.3 | -6.2 | 5.0 | -0.1 | 1.9 | -5.4 | i | -0.9
> CCCCn1c(SCC(=O)N2CCN(c3ccccc3)CC2)nc2ccsc2c1=O
→ -7.4 | 1.4 | nt | 1.4 | 1.2 | -1.0 | i | 27.8
> Cc1ccccc1-c1cc(C(=O)NCc2cccc(C(F)(F)F)c2)n(CC2CC(c3cccnc3)=NO2)n1 (centres undefined)
→ nt | 4.6 | 7.4 | -5.5 | -17.1 | nt | nt | nt
> Cc1ccc(S(=O)(=O)c2nc(NCCN(C)C)sc2Cl)cc1
→ 7.4 | -12.9 | -12.2 | 1.4 | 0.6 | 4.2 | i | -10.7
> CC(NC(=O)CSC1=NCCS1)c1ccccc1 (centres undefined)
→ 0.6 | nt | 20.8 | -0.9 | 1.7 | -11.9 | i | nt
> CC(C)c1ccc(N(C(=O)c2snc(C(N)=O)c2N)C(C(=O)NCC2CCCO2)c2ccc(N(C)C)cc2)cc1 (centres undefined)
→ 3.6 | -15.0 | ? | -4.2 | -10.7 | -8.6 | i | nt
> O=C(NCC1CCCO1)c1ccccc1NS(=O)(=O)c1cccs1 (centres undefined)
→ 1.5 | -13.1 | 2.4 | 2.4 | 4.3 | 6.5 | i | -13.8
> COc1ccc(-n2nc(C(=O)NCC(=O)Nc3ccccn3)c3ccccc3c2=O)cc1Cl
→ -21.9 | -24.7 | -53.8 | -3.9 | -9.9 | -27.3 | i | nt
> O=C(CCCc1cccs1)NCCc1c[nH]c2ccccc12
→ 0.7 | 4.2 | 3.2 | 2.1 | 0.3 | 0.6 | i | 5.3
> CCOC(=O)Cc1cc(=O)[nH]c(/N=C(/NC(=O)c2ccccc2)Nc2ccccc2C(F)(F)F)n1
→ 0.6 | -6.2 | -6.3 | 10.8 | 5.0 | -4.9 | i | -2.8
> CC(=O)N1N=C(c2cccc(O)c2)CC1c1cccs1 (centres undefined)
→ -11.3 | -10.8 | 7.0 | 4.9 | 1.1 | -15.9 | i | nt
> CCn1cc(C(=O)NCCCN2CC(C)CC(C)C2)c(=O)c2cc(S(=O)(=O)N(C)C)ccc21 (centres undefined)
→ -5.9 | 11.1 | 7.1 | 3.7 | 4.7 | -8.5 | i | -1.3
> COc1ccccc1-n1c(SCC(N)=O)nnc1-c1ccc(S(=O)(=O)N2CCCCC2)cc1
→ -6.0 | -7.3 | nt | -5.0 | -2.7 | -5.6 | i | -10.7
> COc1ccc(NC(=O)C2CCN(S(=O)(=O)c3cccs3)CC2)cc1OC
→ nt | -38.6 | -21.0 | 1.4 | -1.2 | nt | nt | 3.4
> COc1cccc(NC(=O)c2ccc3nc(C)c(N(C)Cc4ccc(NC(C)=O)cc4)n3c2)c1
→ nt | 1.2 | -26.0 | -1.5 | 2.2 | nt | nt | nt
> CN(C)CCCN1C(=O)C(=O)/C(=C(/O)c2ccncc2)C1c1cccnc1 (centres undefined)
→ 1.4 | nt | -2.5 | -0.8 | 2.8 | 5.2 | i | nt
> COc1ccc(CN2CCc3ccc(NC(=O)CCc4ccccc4OC)cc3C2)c(O)c1
→ 3.3 | -5.0 | 8.8 | -0.6 | -19.2 | 8.8 | i | 4.2
> O=c1c2c3c(sc2nc2sc(CN4CCCCC4)cn12)CCCC3
→ -5.0 | nt | nt | nt | nt | -0.4 | i | -1.6
> Cc1oc(C)c2c(=O)ccc3c(c12)OC(N)=C(C#N)C3c1ccccc1Cl (centres undefined)
→ ? | nt | nt | -62.3 | 14.2 | ? | i | 5.0
> C=CCn1c2ccccc2c2nnc(SCN3C(=O)c4ccccc4C3=O)nc21
→ -8.2 | nt | nt | 1.7 | -3.2 | 40.9 | i | -18.6
> CNS(=O)(=O)c1cccc(C(=O)OCC(=O)N(Cc2ccccc2)C(C)(C)C)c1
→ 9.9 | 15.8 | -76.0 | -4.1 | -3.2 | -1.7 | i | -27.8
> Cc1ccc2cccnc2c1N
→ -8.0 | -14.1 | 4.1 | 2.9 | 8.8 | -1.2 | i | -8.1
> N#Cc1ccc(NC2c3ccccc3CC2O)cc1 (centres undefined)
→ nt | -10.4 | 38.5 | 2.3 | -9.1 | nt | nt | nt
> NC(=O)c1cc2cc(Cl)ccc2oc1=O
→ -0.2 | -10.3 | -8.4 | -2.4 | 0.5 | -9.9 | i | -5.0
> CCOC(=O)c1sc(-c2cccs2)nc1C
→ -10.5 | nt | -38.8 | -3.1 | 0.1 | 5.0 | i | 0.2
> CCc1ccc(CN2CCN(S(=O)(=O)Cc3ccccc3)CC2)cc1
→ 12.5 | -18.7 | 15.7 | -0.9 | -4.8 | -1.1 | i | nt
> O=S(=O)(NCCOc1ccccc1F)c1cccc(Br)c1
→ nt | nt | 11.8 | 3.7 | 3.3 | nt | nt | 2.1
> O=C(O)c1ncn(Cc2ccccc2)c1C(=O)O
→ 8.6 | -13.1 | -3.1 | 1.0 | 3.6 | 1.1 | i | 5.6
> CNc1nc(N(C)C)nc(N(C)C)n1
→ 0.5 | -24.0 | -3.0 | -1.3 | 6.6 | -1.0 | i | -2.7
> Cc1nnc(SCC(=O)N2CCCC2)n(N)c1=O
→ 3.3 | nt | -10.5 | -2.3 | 2.0 | -6.6 | i | nt
> C=C(C)[C@H]1CC=C(C)C(=O)C1
→ nt | -1.7 | nt | 4.2 | 7.7 | nt | nt | -11.4

(cont.)
Each structure is followed by: PABP FP inh | UUG fidelity | Env fusion inh | MT1-MMP act inh | MT1-MMP act inh RFP | eIF4H FP inh | Rce1 inh | CSC inhib
> O=C(c1cc(-c2ccco2)on1)N1CCc2ccccc2C1
→ 9.4 | -16.0 | -33.6 | -15.5 | 0.7 | 44.5 | i | -10.5
> COc1cc(NC(=S)NCCc2ccccc2)c(OC)cc1NC(=O)CC(C)C
→ 31.6 | nt | 15.7 | -1.9 | -3.9 | -8.7 | i | 2.8
> C/C(CC(C)C)=N\Oc1nc(C)cc(C)n1
→ 5.8 | -3.1 | -10.1 | -1.0 | 3.3 | 3.9 | nt | -9.9
> CCN(CC)CCCN1C=C2C(=O)C(C)(OC(=O)CCC(=O)OC)C(=O)C(Br)=C2C=C1c1ccc(OC)cc1 (centres undefined)
→ nt | -13.1 | 2.3 | -16.4 | 6.1 | nt | i | -16.5
> O=c1c(-c2ccc(Br)cc2)[n+]([O-])c2ccccc2n1OCc1ccccn1
→ -11.7 | -8.6 | 4.3 | 2.6 | 1.1 | -0.9 | i | 7.0
> N#Cc1cc(Oc2ccc3ccccc3c2)c(-n2nnc3ccccc32)cc1C#N
→ -1.2 | -22.7 | 6.7 | -0.9 | -1.5 | -10.0 | i | 4.0
> C=CCn1cccc(C(=O)Nc2ccc(SC)cc2)c1=O
→ 4.1 | 2.5 | -29.3 | -0.9 | -16.5 | -0.4 | i | -2.7
> O=c1c2c(nc3n1CCCCC3)sc1c(O)cccc12
→ 10.9 | -63.1 | nt | -1.8 | -4.5 | -3.3 | nt | -7.2
> CCCCCSc1nnc(-c2ccccc2N)c(=O)[nH]1
→ 3.6 | nt | 16.5 | 20.8 | -2.4 | 14.8 | i | 18.0
> CCOc1ccc(NC(=O)CCN2CCN(c3ccccc3OC)CC2)cc1
→ 9.4 | 3.7 | nt | 8.1 | -1.7 | -6.1 | i | -7.5
> O=[N+]([O-])c1ccc(N/N=C/c2cccc(O)c2O)c(S(=O)(=O)N2CCOCC2)c1
→ -5.4 | nt | 0.2 | -1.2 | -13.7 | 7.8 | i | 72.0
> COc1ccc2cc(S(=O)(=O)N3CCCCC3)ccc2c1S(=O)(=O)N1CCCCC1
→ 0.2 | -11.7 | nt | -3.0 | -19.9 | -3.2 | i | 8.3
> CCCOc1ccccc1C1CC(=O)Nc2cc3c(cc21)OCCO3 (centres undefined)
→ -3.4 | -9.8 | nt | -1.7 | -19.6 | 3.3 | i | 30.7
> CC1(C)CC(=O)C=C(Nc2ccc(F)c(Cl)c2)C1
→ 6.2 | 8.8 | 17.4 | 1.5 | 2.0 | 5.7 | i | 8.0
> c1ccc(-c2oc3ncnc(N4CCOCC4)c3c2-c2ccccc2)cc1
→ -3.0 | nt | nt | nt | nt | -8.5 | i | nt

Screening data as filed in PubChem BioAssay.

The list is partial. The share of hits here may be higher or lower than overall.
